MARV entry inh: blocks Marburg virus binding to or entry into cells. Marburg virus pseudotyped entry inhibition, cell reporter; control for the full effect not named in the record; about a third of the inactives were read at about 46 µM. Potency, µM (highest dose often 37.8 µM), for the others: at the top dose activity change, negative = inhibition, usual class: inhibitors. 1.8% of 300,000 active; active = well fitted inhibition curve with a large enough effect; inconclusive = small, poorly fitted or top-dose-only effect, or effect the other way; inactive = flat fitted curve, though single readings scatter; tested in HEK293 cells; about a fifth of its hits are not listed in these tables; note: % is set by controls: 0 for no effect and ±100 for the full control effect; luciferase read-out
2A StopGo: FMDV 2A StopGo reporter, luciferase signal. human cells with a luciferase reporter of 2A StopGo recoding; control for the full effect not named in the record. 1.2% of 410,000 active. Potency, µM (top dose mostly 57.9 µM), inactives show at the top dose signal change, negative = less light. AID 1159524; active = well fitted falling curve with a large enough effect; inconclusive = small, poorly fitted or top-dose-only effect; inactive = no such curve, though single readings can be large or run the other way; tested in HEK293T cells; note: % is set by controls: 0 for no effect and ±100 for the full control effect; nearly all actives have a fitted effect of over 45% in size; luciferase light after 4 h
Cruzain Triton: blocks cruzain activity in presence of Triton detergent; P25779; purified cruzain, Z-FR-AMC fluorescence, 0.01% Triton; 0.43% of 200,000 active; Potency, µM, for inactives: max response, negative = inhibition, usual class: inhibitors;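 note: plate controls were neutral wells for no effect and buffer without enzyme for full effect; nearly all actives have a fitted effect of over 40% in size; top concentration of the series not given in the record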
Target sequence (P25779 123-467 limits assumed): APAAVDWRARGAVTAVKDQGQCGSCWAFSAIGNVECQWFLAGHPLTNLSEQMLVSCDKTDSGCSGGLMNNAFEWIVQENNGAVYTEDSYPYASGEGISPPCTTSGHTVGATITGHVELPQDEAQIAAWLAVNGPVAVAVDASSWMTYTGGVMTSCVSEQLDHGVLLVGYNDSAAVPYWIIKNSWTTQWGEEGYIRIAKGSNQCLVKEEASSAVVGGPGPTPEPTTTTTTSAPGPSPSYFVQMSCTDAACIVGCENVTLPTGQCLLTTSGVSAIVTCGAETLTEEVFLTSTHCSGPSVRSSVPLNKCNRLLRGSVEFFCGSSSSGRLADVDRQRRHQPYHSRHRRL
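Steps: dispense cruzain (1.5 nM final) in acetate buffer pH 5.5 with DTT and 0.01% Triton X-100; pin-transfer compounds; incubate 15 min RT; add Z-FR-AMC (2 uM final); read fluorescence every 30 s, using the 60 s intensity change.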
Cruzain inh noDet: cruzain (T. cruzi) inhibition without detergent; P25779; purified cruzain, Z-FR-AMC fluorescence, no detergent; Potency, µM, for inactives: max response, negative = inhibition, usual class: inhibitors; 2.3% of 200,000 active; AID 1476;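 note: plate controls were enzyme without inhibitor for no effect and buffer without enzyme for full effect; nearly all actives have a fitted effect of over 40% in size; top concentration of the series not given in the record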
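Detergent-free condition (0.00005% Triton X-100) in acetate buffer pH 5.5 with DTT. 1.5 nM enzyme and compound were pre-mixed 15 min, then 2 uM Z-FR-AMC substrate added; reaction progress from fluorescence change between first and third reads (60 s).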
NS1 function inh: inhibitors of influenza NS1 protein function | S. cerevisiae slowed by influenza A NS1, growth recovery by OD600 | Potency, µM (top dose mostly 46.1 µM), inactives show top-dose activity, positive = more growth | 0.4% of 270,000 active | AID 2326; active means well fitted rising curve with a large enough effect; inconclusive means small, poorly fitted or top-dose-only effect; inactive means no such curve, though single readings can be large or run the other way; note: nearly all actives have a fitted effect of over 50% in size
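Read-out: OD600 growth recovery of NS1-expressing budding yeast. Cells grown overnight at 30C in -URA glucose medium, washed, resuspended and diluted 1:100 in 2% galactose assay medium, pH 6.0. Same strain lacking NS1 served as positive control.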
RE007 growth inh: less growth of the S. pombe RE007 Vpr strain | S. pombe RE007 Vpr strain, BacTiter-Glo ATP luminescence, 24 h; control for the full effect not named in the record | Potency, µM (series often up to 92.2 µM), for inactives: at the highest dose activity change, negative = less growth | 0.21% of 360,000 active | AID 651644; active = well fitted falling curve with a large enough effect; inconclusive = small, poorly fitted or top-dose-only effect; inactive = no such curve, though single readings can be large or run the other way;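 note: % is set by controls: 0 for no effect and ±100 for the full control effect; nearly all actives have a fitted effect of over 50% in size; the assay follows cell death caused by Vpr and the record does not say whether a fall means rescue or toxicity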
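Fission yeast strain RE007, carrying one chromosomally integrated HIV-1 vpr copy, was seeded at OD 0.01 in PMG+AL medium with 23 nL pinned compound. After 24 h at 30 °C and 99% humidity, viability was read by BacTiter-Glo luminescence.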
SARS PLP yeast: SARS-CoV PLP inhibition in yeast. 0.19% of 330,000 active. Potency, µM (highest dose often 32.9 µM), for inactives: top-dose activity, positive = growth rescue. S. cerevisiae expressing SARS-CoV PLpro, growth rescue; control for the full effect not named in the record; active means well fitted rising curve with a large enough effect; inconclusive means small, poorly fitted or top-dose-only effect; inactive means no such curve, though single readings can be large or run the other way; note: 0% is about no effect; nearly all actives have a fitted effect of over 55% in size; growth read by luminescence after 48 h
LASV entry inh: inhibitors of Lassa virus binding or cell entry. Lassa virus pseudotype entry inhibition, cell reporter; control for the full effect not named in the record. Potency, µM (top dose mostly 37.9 µM), for inactives: at the top dose activity change, negative = inhibition, actives largely listed as inhibitors. 1.2% of 300,000 active; active means well fitted inhibition curve with a large enough effect; inconclusive means small, poorly fitted or top-dose-only effect, or effect the other way; inactive means flat fitted curve, though single readings scatter; tested in HEK293 cells; note: % is set by controls: 0 for no effect and ±100 for the full control effect; nearly all actives have a fitted effect of over 50% in size; luciferase read-out
An asterisk follows results filed as active; ? = inconclusive; . = no result given; & = joins results of further samples; [ ] = dose if it differs, or a comment. Unless noted, calls come from the whole dose curve; as a rule, active = well fitted curve in the direction sought with a large enough effect; inconclusive = small, poorly fitted or top-dose-only effect, or another doubt; inactive = no such curve, though single readings can be large; an effect the other way counts as inactive or inconclusive. Potency is the fitted concentration of half-maximal effect.

A first look (ten entries):
Molecule | MARV entry inh | 2A StopGo | Cruzain Triton | Cruzain inh noDet | NS1 function inh | RE007 growth inh | SARS PLP yeast | LASV entry inh
CCOC(=O)CCNC(C(=O)OCC)c1ccccc1 (stereo unspecified) | 7% | -10% | -4.9% | 7% | 7% | -2% | 1% | 25%
CCn1nnc(-c2ccccc2NC(=O)c2cccc(-n3cnnn3)c2)n1 | -29% | . | 3.2% | -15% | 3% | -18% | 3% | -10%
O=C(Cc1ccccn1)c1ccc(O)cc1O | . | -2% | . | . | 5% | 2% | 4% | .
COc1ccc(N(CC(=O)N2CCN(c3ccc(F)cc3)CC2)S(=O)(=O)c2c(C)noc2C)cc1 | 0%&0%[46.1 µM] | -25%&-59% | -5.9% | ? | -7% | 3% | -1% | -14%[46.1 µM]
CC(C)n1c(SC2C(=O)CC(C)(C)CC2=O)nc2c1c(=O)n(C)c(=O)n2C | 19% | . | 2.3% | 0% | -4% | 0% | -4% | -7%
COc1cc(NC(=O)C(=O)NCCN(C)C)c(OC)cc1Cl | 4%[46.1 µM] | -22% | . | . | 8% | 2% | 0% | -6%[46.1 µM]
CC(=O)c1c(C)n(-c2ccc(Cl)cc2)c2ccc(O)cc12 | 4%[46.1 µM] | -7% | . | . | 6% | -2% | 0% | -3%[46.1 µM]
CCn1cc(C(=O)NCc2ccc3c(c2)OCO3)c(=O)c2cc(F)c(N3CCN(C)CC3)cc21 | ? | . | 1.1% | 2% | 8% | -1% | . | 0%
CC(C)(C)NC(=O)CSc1nnc(C2CC2)n1Cc1ccccc1 | 2% | 20% | -0.2% | 4% | -44% | 26% | 12% | -1%
Cc1cc([N+](=O)[O-])cc(/C=N/n2c(C)nc3ccccc3c2=O)c1O | ? | ? | . | . | -95% | ? | -4% | -16%[46.1 µM]

All compounds of this part, previewed entries included:
Molecule | MARV entry inh | 2A StopGo | Cruzain Triton | Cruzain inh noDet | NS1 function inh | RE007 growth inh | SARS PLP yeast | LASV entry inh
CCOC(=O)CCNC(C(=O)OCC)c1ccccc1 (stereo unspecified) | 7% | -10% | -4.9% | 7% | 7% | -2% | 1% | 25%
CCn1nnc(-c2ccccc2NC(=O)c2cccc(-n3cnnn3)c2)n1 | -29% | . | 3.2% | -15% | 3% | -18% | 3% | -10%
O=C(Cc1ccccn1)c1ccc(O)cc1O | . | -2% | . | . | 5% | 2% | 4% | .
COc1ccc(N(CC(=O)N2CCN(c3ccc(F)cc3)CC2)S(=O)(=O)c2c(C)noc2C)cc1 | 0%&0%[46.1 µM] | -25%&-59% | -5.9% | ? | -7% | 3% | -1% | -14%[46.1 µM]
CC(C)n1c(SC2C(=O)CC(C)(C)CC2=O)nc2c1c(=O)n(C)c(=O)n2C | 19% | . | 2.3% | 0% | -4% | 0% | -4% | -7%
COc1cc(NC(=O)C(=O)NCCN(C)C)c(OC)cc1Cl | 4%[46.1 µM] | -22% | . | . | 8% | 2% | 0% | -6%[46.1 µM]
CC(=O)c1c(C)n(-c2ccc(Cl)cc2)c2ccc(O)cc12 | 4%[46.1 µM] | -7% | . | . | 6% | -2% | 0% | -3%[46.1 µM]
CCn1cc(C(=O)NCc2ccc3c(c2)OCO3)c(=O)c2cc(F)c(N3CCN(C)CC3)cc21 | ? | . | 1.1% | 2% | 8% | -1% | . | 0%
CC(C)(C)NC(=O)CSc1nnc(C2CC2)n1Cc1ccccc1 | 2% | 20% | -0.2% | 4% | -44% | 26% | 12% | -1%
Cc1cc([N+](=O)[O-])cc(/C=N/n2c(C)nc3ccccc3c2=O)c1O | ? | ? | . | . | -95% | ? | -4% | -16%[46.1 µM]
CCCC1COC(Cn2cncn2)(c2ccc(C)cc2)O1 (stereo unspecified) | 7% | . | 0.5% | 8% | -177% | -3% | -34% | -24%
Cn1c(Cn2c(=O)sc3ccccc32)nnc1SCc1ccccc1F | 2% | -13% | 2.8% | -2% | -8% | 0% | 5% | .
O=C1OC2CCC1(c1ccccc1)C2 (stereo unspecified) | ? | ? | 3.0% | -7% | 19% | 5% | -9% | 8%
COc1ccc(S(=O)(=O)n2c([N+](=O)[O-])cnc2C)cc1OC | -2% | -4% | . | . | 0% | -5% | -2% | -4%
c1ccc(-c2nc(N3CCCCCC3)nc(-n3ccnc3)n2)cc1 | 5% | ? | -3.3% | -6% | -88% | -5% | -9% | ?
O=c1c2ccccc2nnn1CSc1nnc(-c2cccs2)n1Cc1ccccc1 | 0.82µM* | ? | -1.6% | -12% | -26% | -10% | -2% | ?
CCCCNS(=O)(=O)c1ccc2nc(-c3cccnc3)cc(C(=O)NC3CCCC3)c2c1 | -7%[46.1 µM] | 71%[activator] | . | . | 1% | 11% | 2% | 12%
N#CC(C#N)=C1C=CC=CN1/C(=C\c1ccco1)C(=O)c1ccc(Cl)cc1 | ? | ? | -22% | -14% | 10% | -1% | 14% | ?
CCOC(=O)c1c(-c2ccc(OC)cc2)cn2ccccc12 | ? | 0% | . | . | 6% | -6% | 0% | -3%[46.1 µM]
CC(=NCCCN1CCOCC1)c1c(O)[nH]c(=O)[nH]c1=O | 25% | -15% | 3.6% | -8% | 5% | -7% | -10% | 6%
C=CCN(C(=O)C1=NN(C2CCS(=O)(=O)C2)C(=O)CC1)c1nc(-c2ccc([N+](=O)[O-])cc2)cs1 (stereo unspecified) | ? | 0% | . | . | 6% | 1% | 0% | ?
Cc1ccc(C(=O)NCC(=O)N/N=C/c2cccs2)cc1C | -2%[46.1 µM] | 8% | . | . | . | 7% | -1% | 20%[46.1 µM]
CC1CCN(CCCNC(=O)c2ccc3c(=O)n(CCc4ccccc4)c(=O)[nH]c3c2)CC1 | ? | 16% | 0.1% | -1% | -6% | -5% | -5%[6.58 µM] | 8%
CCOC(=O)c1cc(-c2ccccc2)n(CC(=O)NC(C)c2ccccc2)c1C (stereo unspecified) | . | 7% | -0.5% | 9% | . | . | . | -22%[46.1 µM]
O=C(c1ccccc1[N+](=O)[O-])N1N=C(c2ccccc2)CC1(O)C(F)(F)F (stereo unspecified) | . | 1% | . | . | 14% | 6% | -3% | .
CC(C)CCn1nnnc1C(c1ccccc1)N1CCN(C)CC1 (stereo unspecified) | -34% | -6% | 2.5% | 6% | 6% | 15% | -3% | 24%
O=C1CSC(c2cccc([N+](=O)[O-])c2)N1c1c(F)cccc1F (stereo unspecified) | ? | -12% | . | . | . | 1% | 3% | -8%
CCN(CC)S(=O)(=O)c1ccc(Cl)c(C(=O)NCCN2CCOCC2)c1 | . | -22% | . | . | -4% | -8% | 0% | .
CN1CCC(c2c[nH]c3ccc(O)cc23)CC1 | ? | -22%&-12%&7% | -12%&2.8% | 0%&3% | 6% | 3% | . | 14%
COc1ccc(NC(=O)Cc2ccc(C)cc2)c([N+](=O)[O-])c1 | 3% | -16% | -2.0% | -8% | 13% | 6% | -10% | ?
Cc1ccc(S(=O)(=O)N(CC(=O)N2CCCCCC2)c2ccccc2F)cc1 | 11%[46.1 µM] | 29% | . | . | 1% | 7% | -1% | 10µM*
Cc1ccn(CC(=O)N2N=C(C(F)F)CC2(O)C(F)F)n1 (stereo unspecified) | 3% | -9% | -4.3% | -10% | 5% | 3% | -5% | 3%
Cc1cc(NC(=O)COC(=O)C2CCC(=O)N2)c([N+](=O)[O-])cc1C (stereo unspecified) | 4%[46.1 µM] | 3% | . | . | . | 12% | -3% | 25%[46.1 µM]
CCOc1ccc(NC(=O)Cn2cc(C(=O)c3ccccc3)c3ccccc32)cc1 | -19%[46.1 µM] | -22% | -5.9% | -27% | . | . | . | -10%[46.1 µM]
CN1CCN(C(=O)c2ccccc2NC(=O)C(C)(C)C)CC1 | -20% | 12% | -0.2% | -1% | -2% | 1% | -1% | 8%
O=C(CCN1C(=O)[C@@H]2Cc3ccccc3CN2C1=O)N[C@H](C(=O)O)c1ccccc1 | . | -12% | . | . | 16% | 6% | 3% | .
CCOc1cc(S(=O)(=O)NCCc2c(C)[nH]c3ccc(C)cc23)ccc1Br | -21%[46.1 µM] | 34%[activator] | -13% | -7% | . | . | . | -15%[46.1 µM]
Cn1nnnc1SCC(=O)N1CCN(Cc2ccccc2)CC1 | 0% | 21% | 7.1% | 1% | 5% | 18% | 1% | 14%
NS(=O)(=O)c1ccc(N=Cc2c(O)c3ccccc3oc2=O)cc1 | -23%[46.1 µM] | -17% | . | . | . | -8% | 0% | -20%
Cc1ccc2c(c1)c(Sc1ccccc1)c(CC(=O)O)n2C | 9% | -5% | -3.8% | 5% | 5% | 1% | -9% | 6%
CC(=O)c1c(C)oc2c(Br)cc(NS(=O)(=O)c3ccc(Br)cc3)cc12 | . | 1% | -6.6% | -5% | . | . | . | 23%[46.1 µM]
CCc1ccc(NS(=O)(=O)c2ccc(OC)c(C)c2)cc1 | ? | 49%[activator] | -15% | -1% | -9% | 10% | -12% | 4%
CC(C)(C)N=C1C([N+](=O)[O-])=CC=C2C1=NC1(CCCCC1)N2O | 17% | 0% | -3.3% | -7% | ? | 23% | 3% | -7%
CCCCCCN(C(=O)CCCCCN1C(=O)NC(c2ccc(-c3ccccc3)cc2)C(C(=O)OCc2ccccc2)=C1C)C(C(=O)NCCCC)c1ccc(O)c(C(=O)OC)c1 (stereo unspecified) | . | . | 1.5% | -28% | ? | . | 1% | .
C=CCN1C(=O)c2ccc(C(=O)OCC(=O)N3CCN(c4ccccc4)CC3)cc2C1=O | 3% | -5% | . | . | . | 2% | 0% | 4%
CC1(C)CC(=O)c2cc(-c3nc(-c4ccccc4)cs3)c(=O)[nH]c2C1 | ? | 6% | -2.0% | -3% | . | . | . | -25%[46.1 µM]
O=C(/C=C/c1ccc(F)cc1)NCc1cccs1 | -8% | 54%[activator] | -3.9% | -10% | -4% | 5% | -14% | ?
Cn1cc([N+](=O)[O-])c(C(=O)N/N=C/c2ccc([N+](=O)[O-])cc2)n1 | ? | -2% | -7.9% | -6% | -1% | -6% | -19% | 11%
